PMP22 txn: modulates PMP22 transcription in S16 Schwann cells; S16 Pmp22-F2sN Schwann cells (luciferase reporters placed in the Pmp22 gene), FLuc/NLuc coincidence luminescence, 24 h; 43,000 compounds, 2% hits; Potency, µM (highest dose often 57.5 µM), without a hit: at the highest dose activity change, negative = inhibition, usual class: inhibitors; AID 1508649; active = clear falling dose curves in both reporters; inconclusive = both reporters move, but less clearly or upward; inactive = either reporter flat; the % is the NLuc reporter signal; further: on the % scale 0 is the no-effect control and ±100 the full control effect; some results filed as inactive show a strong effect at the top dose
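qHTS, 1536-well. Cells seeded, compounds added by pin tool, 24 h 37C. Nano-Glo reagent 1 (lysis/FLuc), 10 min RT, read; Stop&Glo, 10 min RT, read NLuc.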
HTT promoter inh: HTT promoter inhibition; Potency, µM (top dose mostly 57.5 µM), inactives show top-dose activity change, negative = inhibition, hits mostly inhibitors; 48,000 compounds, 0.93% hits; AID 1508623; HEK293 HTT promoter firefly luciferase reporter (activity 0% = vehicle and -100% = no light), 24 h; active means well fitted inhibition curve with a large enough effect; inconclusive means small, poorly fitted or top-dose-only effect; inactive means no such curve, though single readings can be large or run the other way; further: nearly all actives have a fitted effect of over 50% in size
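Firefly luciferase readout (Dual-Glo, 10 min RT) after 24 h, 37 °C compound exposure (final up to 57.5 uM) of HEK293 reporter cells cultured 24 h beforehand; PTC124 at 50 uM final as control inhibitor; activity scaled vehicle 0%, zero RLU -100%.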
* marks the source's active call; other numbers are inactive results; ? = inconclusive; · = not tested or not shown; [ ] = remark or other dose. Potency means the concentration at half of the fitted maximal effect. Compounds were not picked by outcome. About 2.7% of those tested had a hit in this group.

The first two records as a preview:
SMILES	PMP22 txn	HTT promoter inh
CC(=O)N1CCOc2cc(S(=O)(=O)NCc3ccc(C)cc3)c(Cl)cc21	-10%	-12%
Cc1ccc(C)c(Cn2c(=O)cc(C(F)(F)F)c3c(C)nn(C)c32)c1	?	-13%

The listing, from the start:
SMILES	PMP22 txn	HTT promoter inh
CC(=O)N1CCOc2cc(S(=O)(=O)NCc3ccc(C)cc3)c(Cl)cc21	-10%	-12%
Cc1ccc(C)c(Cn2c(=O)cc(C(F)(F)F)c3c(C)nn(C)c32)c1	?	-13%
CCn1c(CNC(=O)c2ccc(OC)cc2)nnc1SCC(=O)Nc1ccccc1	-13%	-6%
COc1cccc(-n2cc(C(=O)Nc3ccccc3C(N)=O)c3ccccc3c2=O)c1	-23%	-3%
Cc1cc(N2CCN(C)CC2)nc2ccc(NC(=O)Nc3cccc(Cl)c3)cc12	?	7%
Cc1sc(NC(=O)COc2ccc(C(C)(C)C)cc2)c(C(=O)OC(C)C)c1C	-3%	1%
COc1cccc(/C=C/c2nc(C#N)c(NCCc3ccccc3)o2)c1	-20%	19%
CCOC(=O)c1c(C)[nH]c(C)c1S(=O)(=O)NCC(=O)NCc1ccc(C)cc1	0%	5%
COCCN1CCc2nc(SCC(=O)Nc3ccc(Br)cc3)[nH]c(=O)c2C1	15%	-4%
COc1ccc(C2C=C(c3ccc(F)cc3)Nc3nc(-c4ccc(Cl)cc4)nn32)cc1 (stereo unspecified)	?	?
COc1cccc(CNC(=O)c2ccc(-n3c(C)cc4c3CCCC4)cc2)c1	?	-2%
CCCn1c2ccccc2c2cnn(CC(=O)N(CCCOC(C)C)Cc3ccco3)c(=O)c21	?	-24%
Cc1ccccc1S(=O)(=O)Cc1ccc(C(=O)NC2CCC(C)CC2)o1 (stereo unspecified)	-4%	-9%
CCN(Cc1ccccc1)S(=O)(=O)c1ccc(N2CCCCS2(=O)=O)cc1	?	?
CC(C)COc1ccc(C2=NC(c3ccncc3)=Nc3ccc(F)cc3N2)cc1	-10%	0%
CCN(CC)c1ccc(C2Nc3ccccc3-c3cc(C)nn32)cc1 (stereo unspecified)	9%	-11%
COc1cccc(-c2cc(C(F)(F)F)nc(NCc3ccc(F)cc3)n2)c1	-11%	-20%
COCCCn1c(=N)c(C(=O)NCc2ccco2)cc2c(=O)n3ccccc3nc21	?	6%
CCC(=O)N1N=C(c2ccc(OC)cc2)CC1c1cn(-c2ccccc2)nc1-c1cccs1 (stereo unspecified)	?	-12%
O=C(O)Cn1ccc2cc(S(=O)(=O)N3CCCCCC3)ccc21	-16%	-2%

Additional structures
SMILES	PMP22 txn	HTT promoter inh
COc1ccc(NC(=O)Cn2c(=O)n(-c3cc(C)cc(C)c3)c(=O)c3oc4ccccc4c32)cc1OC	?	?
O=C(NCc1ccc2c(c1)CCN2C(=O)c1ccncc1)c1ccccc1Br	?	?
COc1cccc(S(=O)(=O)N2CCN(Cc3ccc4c(c3)OCO4)CC2)c1	-23%	-21%
CCOC(=O)c1c(C)[nH]c(C)c1S(=O)(=O)N1CCCC(C(=O)Nc2ccc(OC)c(OC)c2)C1 (stereo unspecified)	-16%	-1%
CC(=O)N1CCc2cc(S(=O)(=O)NC(Cc3ccccc3)C(=O)NCc3ccccc3Cl)ccc21 (stereo unspecified)	5%	-11%
Cc1ccc(Nc2sc(C(=O)c3ccc(F)cc3)c(N)c2S(=O)(=O)c2ccc(C)cc2)cc1	-15%	?
O=C(CCn1c(=O)c2cccn2c2cccnc21)N1CCN(c2ccc(F)cc2)CC1	?	-10%
Cc1cccc(NC(=O)c2cc(S(=O)(=O)N3CCCCCC3)cn2C)c1C	?	-18%
COc1ccc(NC(=O)Cn2c(=O)n(-c3cccc(C)c3)c(=O)c3c2c2cc(C)ccc2n3C)cc1Cl	15µM*	-23%
CCc1ccc(NC(=O)c2cc3c([nH]c2=O)CC(C)(C)CC3=O)cc1	?	33%[activator]
Cc1cccc(Nc2nc(-c3ccncc3)cs2)c1	·	-6%
CCOc1cc2sc(N3CCC(C(=O)Nc4ccccc4C(=O)OC)CC3)nc2cc1Br	0%	26%
COc1ccc(CNC(=O)C(C)Sc2nc(-c3ccccc3)cc(C(F)(F)F)n2)cc1 (stereo unspecified)	?	-14%
COc1ccc(C)cc1NC(=O)C1CCC(CNS(=O)(=O)c2ccc3c(c2)CCCC(=O)N3)CC1 (stereo unspecified)	?	?
COc1ccc(C2CC(=O)c3cc(-c4nc(-c5cccc([N+](=O)[O-])c5)cs4)c(=O)n(-c4ccccc4C)c3C2)cc1 (stereo unspecified)	4%	-19%
Cc1cc(C)n2nc(SCC(=O)Nc3ccccc3)nc2n1	-7%	8%
CCC(=O)N1c2ccccc2CC1C(=O)NCCc1ccc(OC)cc1OC (stereo unspecified)	-2%	-12%
CCc1cc2c(cc3c(=O)n(CC(=O)N4CCCCC4)ncn32)s1	-5%	2%
CCOc1ccc(CCNC(=O)c2ccc(-c3nc(CSc4ccc(C)cc4)c(C)o3)cc2)cc1	7%	-24%
CCOc1ccccc1NC(=O)N1CCCn2nc(C)cc21	-18%	-8%

New compounds follow.
SMILES	PMP22 txn	HTT promoter inh
Cc1ccc(S(=O)(=O)c2cn(CC(=O)Nc3ccccc3)c3cc4c(cc3c2=O)OCO4)cc1	9%	-18%
CCOc1ccc(Cn2c(CNS(=O)(=O)c3ccc(CC)cc3)nc3cccnc32)cc1	-12%	?
Cc1nc(SCCOc2ccccc2F)[nH]c(=O)c1Cc1ccccc1	-25%	-5%
N#Cc1cc(NC(=O)Nc2nnc(-c3ccncc3)s2)ccc1-c1cn[nH]c1	·	?
CCc1ccc(CNC(=O)CN2C(=O)CCn3nc(-c4cn(C)c5ccccc45)cc32)cc1	7%	-2%
CCOCCCn1c(=N)c(C(=O)NCC2CCCO2)cc2c(=O)n3cccc(C)c3nc21 (stereo unspecified)	16µM*	-6%
CC(=O)c1ccc(NC(=O)C2CCN(c3nnc(C)c4c(C)n(-c5ccccc5)nc34)CC2)cc1	?	-9%
CCC(C)NC(=O)CN1C(=O)c2cccnc2Oc2ccc(C)cc21 (stereo unspecified)	-26%	10%
COc1ccc(C)cc1N(C)C(=O)c1c(C)oc2ncnc(N3CCOCC3)c12	-14%	-3%
COc1ccc(-n2c(=O)c3ccccc3n(Cc3cccc(C)c3)c2=O)cc1	-16%	-17%
CCOC(=O)c1[nH]c2c(c1Cc1ccccc1C)C(=O)CC(c1ccccc1)C2 (stereo unspecified)	?	3%
COc1ccccc1NC(=O)Cn1c(C)cc(C)c(C#N)c1=O	2%	2%
CCC(C)NC(=O)Cn1ccc2cc(S(=O)(=O)N3CCCCCC3)ccc21 (stereo unspecified)	-1%	-30%
CC(=O)Oc1ccc(C2(c3ccc(OC(C)=O)cc3)Oc3ccccc3NC2=O)cc1	·	?
CCOc1ccc(CNC(=O)c2ccc(NC(=O)c3nsc4ccccc34)cc2)cc1	-7%	?
COc1ccc(S(=O)(=O)NC(C)C)cc1-n1cnnn1	5%	-14%
Cc1ccc(S(=O)(=O)CC(=O)Nc2nc3c(C)cc(C)cc3s2)cc1	-26%	-22%
COCc1oc2ccc(NS(=O)(=O)c3ccc(C)cc3)cc2c1C(=O)OC	7.1µM*	?
CCOc1ccc(NC(=O)CSC2=Nc3ccccc3C3=NC(Cc4ccccc4)C(=O)N23)cc1 (stereo unspecified)	-17%	-30%
Cc1ccc(C(C)C)c(OCC(=O)Nc2nc3c(s2)CCCC3)c1	-29%	-23%

Following part:
Every second line gives: PMP22 txn	HTT promoter inh
Cc1cccc(NC(=O)CN2C(=O)CCc3ccccc32)c1C
  54%	-27%
COc1ccc(CNC(=O)c2ccc(CSc3nc4ccncc4n3Cc3ccccc3F)cc2)cc1
  -37%	-20%
COc1ccc2c(CNCc3ccc(C)o3)c(C(=O)O)n(Cc3ccccc3C)c2c1
  14%	2%
CCN1CCN(c2cc3c(cc2F)c(=O)c(S(=O)(=O)c2ccc(OC)cc2)cn3CC)CC1
  -24%	1%
CCN(CCCNC(=O)Cn1ncc2c([nH]c3ccccc32)c1=O)c1cccc(C)c1
  -3%	1%
Cc1ccc(CNC(=O)C(=O)NCC(c2ccco2)S(=O)(=O)c2cccs2)cc1 (stereo unspecified)
  4%	?
COc1cccc(/C=C/c2nc(C#N)c(N3CCCCCC3)o2)c1
  -22%	-10%
O=C(O)Cc1ccc(-c2ccccc2)cc1
  ·	11%
COc1ccc(S(=O)(=O)NCC(c2ccco2)S(=O)(=O)c2cccs2)cc1C (stereo unspecified)
  ?	?
CCOc1ccc(CNCc2c(C(=O)O)n(Cc3ccc(OC)cc3)c3ccccc23)cc1
  -28%	?
CC(C)(C)OC(=O)N1CCC(c2c(C(=O)NCc3ccccn3)cnn2-c2ccc(F)cc2)CC1
  -25%	-10%
CCOC(=O)c1c(-c2ccccc2)oc2ccc(N(C(C)=O)S(=O)(=O)c3cc(C)ccc3C)cc12
  -5%	1%
O=S(=O)(c1ccc(OC(F)(F)F)cc1)N1CCC(c2nnnn2-c2ccc(F)cc2)CC1
  1%	-10%
Cc1ccc(-n2ncc(C(=O)Nc3c(Cl)cccc3Cl)c2C2CCNCC2)cc1
  0%	-7%
COC(=O)c1ccccc1NC(=O)Cn1c(=O)n(-c2ccc(C)cc2)c(=O)c2ccccc21
  ?	?

Continuation.
Every second line gives: PMP22 txn	HTT promoter inh
COc1ccc(OC)c(CNC(=O)c2cc3ccc4cccnc4c3[nH]2)c1
  -43%	4%
CCOc1ccc(NC(=O)CSc2nccn2Cc2ccco2)cc1
  -2%	73%[activator]
CCOC(=O)N1CCc2c(sc3c2c(=O)n(-c2ccc(Cl)cc2)c(=O)n3Cc2cccc(C)c2)C1
  -9%	-11%
Cc1c(C(=O)NCc2ccccc2)sc2nc3n(c(=O)c12)CCC3
  11%	44%[activator]
COc1ccc(-n2cc3c(c2-c2cccc(Br)c2)c(=O)n(C)c(=O)n3C)cc1OC
  -28%	3%
CC(C)S(=O)(=O)c1oc(-c2ccc(F)cc2)nc1S(=O)(=O)c1ccc(F)cc1
  2µM*	?
COc1ccc([N+](=O)[O-])cc1NC(c1nnc(-c2ccccc2)o1)c1ccccc1F (stereo unspecified)
  -29%	-13%
CCOC(=O)CSc1nc2ccccc2c(=O)n1CCc1ccc(OC)c(OC)c1
  ?	-17%
Cc1ccc2c(c1)cc(C(=O)Nc1ccccc1C)n2C
  ?	-6%
CCOc1ccc(NC(=O)CSc2nnc(NC(=O)Nc3ccccc3)s2)cc1
  ?	-9%
CC1=C(c2ccc(C)cc2)S(=O)(=O)N(Cc2ccc(C(=O)Nc3ccc(F)cc3C)cc2)C1=O
  ?	?
COc1ccc(N2CCN(S(=O)(=O)c3ccc(-c4ccno4)cc3OC)CC2)cc1
  -11%	5%
COc1ccc(C(=O)NCc2nnc(SCC(=O)Nc3ccccc3)n2-c2ccc(F)cc2)cc1
  -4%	-20%
O=C(CN1C(=O)CSc2ccc(S(=O)(=O)N3CCOCC3)cc21)NCCCN1CCCCC1
  0%	-6%
Fc1ccc(Nc2nc(-c3ccc(F)cc3)c3c(n2)-c2ccccc2OC3)cc1
  -15%	-8%

Following part
Every second line gives: PMP22 txn	HTT promoter inh
CCCn1c(=O)c2sccc2n2c(CCCC(=O)NCc3ccccc3)nnc12
  -16%	-21%
Cc1noc(-c2ccccc2OCC(=O)Nc2cccc([N+](=O)[O-])c2)n1
  ?	-5%
CCCNC(=O)C1=CC(c2ccc3c(c2)OCO3)=NS(=O)(=O)N1C
  -17%	-15%
Cc1noc(-c2ccc(CSCCC(=O)O)cc2)c1NC(=O)OC(C)c1ccccc1Cl (stereo unspecified)
  ·	-12%
O=C(NCc1ccc2c(c1)OCO2)c1ccc2c(c1)N(Cc1c(F)cccc1Cl)C(=O)c1ccccc1S2
  -2%	-18%
COc1cccc(CNC(=O)C(CC(C)C)NS(=O)(=O)c2ccc3c(c2)oc(=O)n3C)c1 (stereo unspecified)
  -1%	-11%
CCC(=O)N(CCC(c1ccccc1)c1ccc2c(c1)OCO2)Cc1ccc(OC(C)C)cc1 (stereo unspecified)
  ?	-29%
CCOc1ccc(C(=O)Nc2nnc(S(=O)(=O)Nc3ccccc3)s2)cc1
  12%	12%
Cc1ccc(-n2nc(C)c3c(C)cc(=O)n(CC(=O)N4CCCc5ccccc54)c32)cc1
  3%	0%
COC(=O)c1ccccc1NC(=O)Cn1nnc(-c2ccc(OC)cc2)n1
  -18%	-30%
CCOC(=O)C1CCCCN1S(=O)(=O)c1csc(C(N)=O)c1 (stereo unspecified)
  -20%	-13%

Entries of single compounds as entered above. Order of values: PMP22 txn | HTT promoter inh
CCCn1c(=O)c2sccc2n2c(CCCC(=O)NCc3ccccc3)nnc12 is entered as -16% | -21%
COc1cccc(CNC(=O)C(CC(C)C)NS(=O)(=O)c2ccc3c(c2)oc(=O)n3C)c1 (stereo unspecified) is entered as -1% | -11%
Cc1ccc(-n2nc(C)c3c(C)cc(=O)n(CC(=O)N4CCCc5ccccc54)c32)cc1 is entered as 3% | 0%
CCOC(=O)C1CCCCN1S(=O)(=O)c1csc(C(N)=O)c1 (stereo unspecified) is entered as -20% | -13%
CCOc1ccc(C(=O)Nc2nnc(S(=O)(=O)Nc3ccccc3)s2)cc1 is entered as 12% | 12%

Screening data (PubChem BioAssay)
